T cell modulator: T cell immune modulation candidate; 2C CD8+ T cell-vesicle binding, flow cytometry; hits give low values; calls only at 7 µM; hit rate 0.068% among 330,000; AID 2052;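 active = response, share of CD8 T cells binding vesicles, and their 90th percentile fluorescence all below set limits, cut at about 80% in these data, passing the limit was not always enough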
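Incubation: binding step 1.5 h, 37 °C, antibody labelling 20 min, ice; system: murine 2C transgenic CD8+ T lymphocytes; technique: cytometric PE anti-B7-1 and Alexa647 anti-CD8 signals after 1% paraformaldehyde fixation; also added: QL9-charged Drosophila Ld/ICAM-1/B7-1 vesicles; control set: naked versus QL9-loaded vesicles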
GPR55 LPI antagonism: GPR55 antagonists blocking LPI-driven arrestin recruitment, primary screen, imaging, U2OS, beta-arrestin-GFP, LPI agonist (AID 2013); U2OS GPR55 beta-arrestin-GFP translocation imaging, LPI antagonism; higher % means a stronger effect; inhibition, % at 10 µM; hits with a dose series show IC50 in µM; hit rate 0.13% among 290,000;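 active = spots per cell inhibited over 60%, with over 100 cells counted and total cytoplasm intensity under 500,000; inconclusive = wells with under 100 cells, flagged as likely toxic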;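 also: U2OS cells stably carrying GPR55 and arrestin-GFP stimulated by 5 µM LPI near EC80; imaged beta-arrestin-GFP aggregate spots per cell after agonist stimulation; plate controls were LPI-stimulated DMSO wells for no effect and DMSO wells without LPI for full effect; some results filed as inactive read as strong as hits; confirmed hits need IC50 under 10 µM and bright autofluorescent wells are also inconclusive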
GPR55 activation: selective activators of receptor GPR55 – imaging, U2OS cells, beta-arrestin-GFP redistribution, primary screen (AID 1961) | U2OS GPR55 beta-arrestin-GFP redistribution imaging; higher % means a stronger effect | activation, % at 10 µM; hits with a dose series show EC50 in µM | hit rate 0.048% among 290,000;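 active = activation above 40% with more than 50 cells counted in the well; inconclusive = wells holding fewer than 50 cells, flagged as toxic or sparse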;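 also: U2OS osteosarcoma cells stably expressing GPR55 and beta-arrestin-GFP; plate controls were DMSO negative control for no effect and LPI positive control for full effect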
Myeloid diff MLP: myeloid differentiation induction | ER-HoxA9 myeloid progenitors, lysozyme-GFP differentiation, flow cytometry | calls only at 10 µM | hit rate 1% among 360,000;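 active = normalized GFP-positive differentiation at or above the plate's own cutoff, the solvent-only control mean plus 3 SD; inconclusive = no clear call, values can overlap the other calls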;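 also: cells exposed to compound for four days before flow analysis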
NTR1 ag: NTR1-driven beta-arrestin-GFP spot formation – imaging, U2OS cells, high content, primary screen (AID 493036) | hit rate 0.17% among 330,000 | activation, % at 20 µM | agonist mode;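 active = activation at or above 40% of the spot to cytoplasm intensity ratio, with at least 20 cells analyzed; inconclusive = wells under 20 cells, flagged as cytotoxic or low count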;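 also: 0% = DMSO without peptide and 100% = 100 nM NTR1 peptide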
Target sequence (P30989 whole entry, looked up): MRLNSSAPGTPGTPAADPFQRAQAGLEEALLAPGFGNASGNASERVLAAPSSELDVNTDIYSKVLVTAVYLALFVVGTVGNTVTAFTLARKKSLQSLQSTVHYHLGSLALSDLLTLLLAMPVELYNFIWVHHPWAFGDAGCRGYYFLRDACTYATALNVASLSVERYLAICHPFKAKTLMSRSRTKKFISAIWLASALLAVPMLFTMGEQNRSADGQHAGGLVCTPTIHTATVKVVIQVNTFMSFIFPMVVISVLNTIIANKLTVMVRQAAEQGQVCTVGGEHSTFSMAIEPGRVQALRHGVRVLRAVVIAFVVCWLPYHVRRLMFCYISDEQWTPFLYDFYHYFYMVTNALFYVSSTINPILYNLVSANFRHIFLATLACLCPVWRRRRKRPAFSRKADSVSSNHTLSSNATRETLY
T cell modulator vesicle-bound %: recorded beside T cell modulator, whose call it bears; double positive events, %; measured here: CD8+ vesicle-bound cell fraction;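 binding gate set so that unloaded-vesicle control wells show 10% double positive cells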
NTR1 ag cell count 20 µM: recorded beside NTR1 ag, whose call it bears; cell count; measured here: cell count, cytotoxicity flag
Myeloid diff MLP GFP+ MAC1+ %: recorded beside Myeloid diff MLP, whose call it bears; GFP+ MAC1+ double positive, %; measured here: differentiation confirmed by MAC1 staining
Starred values were filed as active, the others as inactive; i = inactive; ? = inconclusive; nt = no result given; + = active, no number; & = joins results of further samples.

1) O=C(Nc1ccc(Oc2cccnc2)nc1)c1ccc(C(F)(F)F)cc1
2) CCOC(=O)c1cncn1[C@H](C)c1ccccc1
3) Cc1oc(-c2cccc3ccccc23)nc1CN1CCN(c2ncnc3ccccc23)CC1
4) Cc1c(NS(=O)(=O)c2ccc3c(c2)OCCO3)cccc1-c1nc2cccnc2s1
5) COc1ccc2cc3c(N)nn(C(=O)c4ccc(Cl)c([N+](=O)[O-])c4)c3nc2c1

assay / compound | 1 | 2 | 3 | 4 | 5
T cell modulator | i | i | i | i | i
T cell modulator vesicle-bound % | 16 | 14 | 25 | 22 | 32
GPR55 LPI antagonism | -2% | 5% | -6% | -7% | -3%
GPR55 activation | -0.2% | -0.5% | 0.3% | 0.3% | -0.2%
Myeloid diff MLP | i | nt | i | i | i
Myeloid diff MLP GFP+ MAC1+ % | 0.5 | nt | 0.2 | 3.9 | 0.2
NTR1 ag | -0.9 | 2.1 | 28 | -3.5 | 3.3
NTR1 ag cell count 20 µM | 50 | 49 | 38 | 45 | 84

6) N#Cc1c(-c2cccs2)nc(SCc2ccc(Cl)cc2)[nH]c1=O
7) COc1ccc(Oc2cc(NC(=O)c3nn(C)cc3[N+](=O)[O-])cc([N+](=O)[O-])c2)cc1
8) COc1cccc(Nc2nc3ccccc3nc2NS(=O)(=O)c2cccs2)c1
9) CCN(CC)C(=O)c1oc2ccc(S(=O)(=O)N3CC(C)CC(C)C3)cc2c1C (stereo not drawn)
10) CCOc1ccc(NC(=O)c2ccccc2NS(=O)(=O)c2ccc(F)cc2)c([N+](=O)[O-])c1

assay / compound | 6 | 7 | 8 | 9 | 10
T cell modulator | nt | i | i | i | i
T cell modulator vesicle-bound % | nt | 16 | 26 | 34 | 46
GPR55 LPI antagonism | 6% | 5% | 16% | -1% | -2%
GPR55 activation | -0.1% | 0.7% | 0.0% | 0.2% | -0.2%
Myeloid diff MLP | i | i | i | i | i
Myeloid diff MLP GFP+ MAC1+ % | 0.1 | 5.8 | 1.1 | 0.4 | 0.2
NTR1 ag | 3.1 | 61* | 8.3 | 1.6 | 4.9
NTR1 ag cell count 20 µM | 92 | 71* | 92 | 47 | 51

11) C=CCN1CC[C@]23c4c5ccc(O)c4O[C@H]2C(=O)CC[C@@]3(O)[C@H]1C5
12) Cc1cccc(-n2[nH]c3c4c(ccc3c2=O)C(=O)c2ccccc2C4=O)c1
13) C/C(=N\NC(=O)c1ccccc1F)c1ccccn1
14) CC(Nc1ncnc2sccc12)c1ccccc1 (stereo not drawn)
15) CC1CC(C)C[N+](=C2C=C(N3CCCC3)CC(C)(C)C2)C1 (stereo not drawn)

assay / compound | 11 | 12 | 13 | 14 | 15
T cell modulator | i | i | i | i | nt
T cell modulator vesicle-bound % | 14&64 | 14 | 4 | 23 | nt
GPR55 LPI antagonism | -14% | -1% | 19% | -1% | 0%
GPR55 activation | 0.2% | -0.1% | 0.3% | -0.1% | 1.9%
Myeloid diff MLP | i | i | ? | nt | +
Myeloid diff MLP GFP+ MAC1+ % | 2.6&2.9 | 0.3 | nt | nt | 1.0*
NTR1 ag | 3.7&6.9 | 1.3 | 4.4 | 3.0 | nt
NTR1 ag cell count 20 µM | 58&43 | 48 | 65 | 37 | nt

16) CC1Sc2ccc(S(=O)(=O)N3CCC(C(=O)Nc4ccc(Cl)cc4)CC3)cc2NC1=O (stereo not drawn)
17) O=C(Nc1cccc([N+](=O)[O-])c1)c1ccc2ccccc2c1O
18) CCn1nc(/C=C/c2ccccc2)nc2c(=O)n(C)c(=O)nc1-2
19) CN1CCN(c2ncnc3ccc(Br)cc23)CC1
20) O=C1CC(N2CC=C(c3ccc(F)cc3)CC2)C(=O)N1c1ccc(F)cc1 (stereo not drawn)

assay / compound | 16 | 17 | 18 | 19 | 20
T cell modulator | i | i | nt | i | i
T cell modulator vesicle-bound % | 11 | 13 | nt | 35 | 27
GPR55 LPI antagonism | 2% | 4% | 0% | 4% | 18%
GPR55 activation | 0.0% | -0.1% | -0.1% | -0.2% | -0.1%
Myeloid diff MLP | i | i | ? | i | i
Myeloid diff MLP GFP+ MAC1+ % | 4.2 | 0.3 | nt | 0.3 | 3.1
NTR1 ag | 5.5 | 6.1 | 9.8 | -2.7 | 1.2
NTR1 ag cell count 20 µM | 50 | 83 | 83 | 61 | 69

21) Cc1cc(C)n(Cc2ccc(NC(=O)c3ccc(COc4ccccc4Br)cc3)cc2)n1
22) Cc1ccccc1/C=C1\Sc2ccc(C(=O)N3CCN(c4ccccn4)CC3)cc2N(C)C1=O
23) COc1ccc(-c2csc(NC(=O)C3=NN(c4ccccc4)C(=O)CC3)n2)cc1
24) Cc1nc2cc(NC(=O)c3ccc([N+](=O)[O-])s3)ccc2s1

assay / compound | 21 | 22 | 23 | 24
T cell modulator | i | i | i | i
T cell modulator vesicle-bound % | 6 | 7 | 37 | 18
GPR55 LPI antagonism | 10% | -13% | -1% | 7%
GPR55 activation | -0.1% | -0.2% | -0.4% | 0.0%
Myeloid diff MLP | i | i | i | i
Myeloid diff MLP GFP+ MAC1+ % | 0.3 | 0.0 | 0.2 | 1.0
NTR1 ag | 2.8 | 7.8 | 16 | 5.9
NTR1 ag cell count 20 µM | 69 | 62 | 63 | 60

Structures from the list above that contain sulfur:
4) Cc1c(NS(=O)(=O)c2ccc3c(c2)OCCO3)cccc1-c1nc2cccnc2s1
6) N#Cc1c(-c2cccs2)nc(SCc2ccc(Cl)cc2)[nH]c1=O
8) COc1cccc(Nc2nc3ccccc3nc2NS(=O)(=O)c2cccs2)c1
9) CCN(CC)C(=O)c1oc2ccc(S(=O)(=O)N3CC(C)CC(C)C3)cc2c1C (stereo not drawn)
10) CCOc1ccc(NC(=O)c2ccccc2NS(=O)(=O)c2ccc(F)cc2)c([N+](=O)[O-])c1
14) CC(Nc1ncnc2sccc12)c1ccccc1 (stereo not drawn)
16) CC1Sc2ccc(S(=O)(=O)N3CCC(C(=O)Nc4ccc(Cl)cc4)CC3)cc2NC1=O (stereo not drawn)

assay / compound | 4 | 6 | 8 | 9 | 10 | 14 | 16
T cell modulator | i | nt | i | i | i | i | i
T cell modulator vesicle-bound % | 22 | nt | 26 | 34 | 46 | 23 | 11
GPR55 LPI antagonism | -7% | 6% | 16% | -1% | -2% | -1% | 2%
GPR55 activation | 0.3% | -0.1% | 0.0% | 0.2% | -0.2% | -0.1% | 0.0%
Myeloid diff MLP | i | i | i | i | i | nt | i
Myeloid diff MLP GFP+ MAC1+ % | 3.9 | 0.1 | 1.1 | 0.4 | 0.2 | nt | 4.2
NTR1 ag | -3.5 | 3.1 | 8.3 | 1.6 | 4.9 | 3.0 | 5.5
NTR1 ag cell count 20 µM | 45 | 92 | 92 | 47 | 51 | 37 | 50

22) Cc1ccccc1/C=C1\Sc2ccc(C(=O)N3CCN(c4ccccn4)CC3)cc2N(C)C1=O
23) COc1ccc(-c2csc(NC(=O)C3=NN(c4ccccc4)C(=O)CC3)n2)cc1
24) Cc1nc2cc(NC(=O)c3ccc([N+](=O)[O-])s3)ccc2s1

assay / compound | 22 | 23 | 24
T cell modulator | i | i | i
T cell modulator vesicle-bound % | 7 | 37 | 18
GPR55 LPI antagonism | -13% | -1% | 7%
GPR55 activation | -0.2% | -0.4% | 0.0%
Myeloid diff MLP | i | i | i
Myeloid diff MLP GFP+ MAC1+ % | 0.0 | 0.2 | 1.0
NTR1 ag | 7.8 | 16 | 5.9
NTR1 ag cell count 20 µM | 62 | 63 | 60

A portion of the library, so the mix of outcomes need not match the whole.
